AID504770: growth inhibition of E. coli YBA685, primary screen, V. cholerae RctB inhibitors; AID 504770, 2011; z-score (no concentration beside the values); E. coli YBA685 rctB-dependent plasmid, OD600 growth, 3 h; hits give low values; 130,000 tested, 0.27% active;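 active = z-score under -2 on both plates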;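 note: wells of about 30 µL received 100 nL stock; score is relative to mean and SD of the test wells; the first replicate is given; strong numbers were not always called active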
Ba CapD inh: Bacillus anthracis CapD inhibitors, primary screen, biochemical, fluorescence intensity; CapD gamma-glutamyltranspeptidase (Bacillus anthracis Ames Ancestor); z-score (no concentration beside the values); 140,000 tested, 0.23% active; purified CapD enzyme, fluorescence intensity read-out; hits give low values; some hits fall short of the stated cut;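 active = z-score under -4 in either of two replicates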;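 note: stock transfer was 100 nL into about 40 µL; score is relative to mean and spread of the plate; one replicate is shown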
* hit, by the source's call; i = inactive; x = no result given.

SMILES	AID504770	Ba CapD inh
O=[N+]([O-])c1c(C(F)(F)F)cc(-c2cc(C(F)(F)F)cc(C(F)(F)F)c2)cc1C(F)(F)F	x	0.075
O=C(CSc1nc2ccccc2nc1N1CCCCC1)N1CCN(c2ccc(Cl)cc2)CC1	0.5	2.75
Cc1cc(C)c(C(=O)C2CCN(C(=O)c3cccs3)CC2)c(C)c1	0.9	-0.115
CSc1cccc(NS(=O)(=O)c2ccc3c(c2)OC(C)CN3C(C)=O)c1 (stereo not given)	-0.45	-0.55
CSc1sc(C(=O)O)c(Cl)c1S(=O)(=O)C(C)C	x	-0.51
Cc1cc(=O)c(C(=O)Nc2ccc(N3CCOCC3)cc2N2CCOCC2)nn1-c1ccc(Cl)cc1	-0.3	x
CSc1nn2c(C)cc(C)nc2c1C#N	x	0.865
CCCCC(O)(CCCC)C1=NN(c2ccc(C)cc2)C(=O)C(c2ccccc2)(c2ccccc2)O1	x	-0.665
Cc1ccc(NC(=O)CS(=O)CC(=O)Nc2ccc(N3CCOCC3)cc2)cc1Cl (stereo not given)	-0.05	x
N#Cc1cc(C#N)c(SCC(=O)Nc2ccccc2Br)nc1N	x	8.51
CCc1ccc(COC(=O)N2CCN(Cc3c(OC)ccc4ccccc34)CC2)cc1	x	1.33
O=C(CCN1CCOCC1)c1ccc(F)cc1	x	-0.15
NC(=O)CSc1nnc(-c2ccc(S(=O)(=O)N3CCCC3)cc2)o1	-0.7	x
COc1cc(OC)nc(OC(Cc2ccncc2)c2ccc(C(C)(C)C)cc2)n1 (stereo not given)	x	-0.86
COc1ccc(NC(=O)C2CCCCC2)c2ccccc12	-1	i
O=C(Nc1ncccn1)c1cccc(F)c1	-0.45	-0.525
Cc1cc(C)c2c(CC(=O)N3CCCc4ccccc43)coc2c1	-0.05	0.895
Cc1ccc(NC(C(N)=O)c2c(C)[nH]c(=O)[nH]c2=O)cc1 (stereo not given)	0.1	0.655
CCOc1ccc(Nc2nc(N3CCOCC3)c3ccccc3n2)cc1	x	-0.56
CCn1c2ccccc2c2cc(NC(=O)Cn3c4ccccc4c(=O)c4ccccc43)ccc21	x	-0.375
Cc1ccc(COc2ccc(C)nc2[N+](=O)[O-])cc1	x	-1.05
[S-]c1n[n+]2c(-c3ccccc3)cc(-c3ccccc3)nc2s1	-0.2	-0.56
CCN(Cc1cc2ccccc2[nH]c1=O)c1ccc(OC)cc1	0.1	-0.01
CCOC(=O)C1CCCN(C(=O)S(=O)(=O)c2ccc(-c3ccccn3)s2)C1 (stereo not given)	-1.25	0.865
Cc1cccc2cc(CC3CC(c4ccccc4)=NN3C(=O)CCC(=O)O)c(=O)[nH]c12 (stereo not given)	x	-0.705
COc1ccccc1OCC#CCN1CCCc2ccccc21	-1.05	-0.03
CC(=O)N1CCOc2cc(S(=O)(=O)N3CCCCC3)ccc21	-0.6	-0.445
COc1ccc(C2(CNC(C)=O)CCOCC2)cc1OC	-0.75	0.215
Cc1cc2nnc(SCC(=O)Nc3ccc(S(N)(=O)=O)cc3)n2c2ccccc12	x	0.105
CCOC(=O)c1c(NC(=O)Cc2ccc(Cl)cc2)sc(C(=O)Nc2ccc(C)cc2C)c1C	x	-0.295
c1ccc2c(CNC3CCCCCC3)c[nH]c2c1	-0.8	-0.93
CCOc1ccc(-n2c(Cc3cc(=O)[nH]c(=O)[nH]3)nnc2SCC(=O)N2CCCC2)cc1	0.8	x
O=C(COc1ccccc1)Nc1ncc(Cc2ccccc2)s1	-0.45	i
CC(Sc1nncs1)C(=O)NC(C)c1ccccc1 (stereo not given)	1.45	x
O=C1C(=Nc2cccc(C(F)(F)F)c2)c2ccccc2N1c1ccccc1	x	0.425
COc1ccc(Nc2nc(Nc3ccc(OC)cc3)nc(Sc3nncn3C)n2)cc1	x	-0.31
CCOC(=O)c1ccc(NC(=O)Cn2cnc3c(oc4ccccc43)c2=O)cc1	0.65	x
CC1CCCC(C)N1C(=O)COC(=O)c1c2c(nc3ccccc13)CCCC2 (stereo not given)	-0.45	x
CC(=O)N(C)c1nc(-c2ccccc2)cs1	0.35	x
O=C1Nc2ccc(S(=O)(=O)Oc3ccccc3)c3cccc1c23	x	29.8
COc1ccc(-c2nnc3c4ccccc4c(C)nn23)cc1S(=O)(=O)NCc1cccnc1	-0.35	0.435
COc1ccc(C(=O)c2cnc3ccc(F)cc3c2N2CCN(c3ccccc3OC)CC2)cc1	-0.4	0.13
CC1OC(C)C2Cc3ccccc3C2O1 (stereo not given)	-0.9	-0.125
O=S(=O)(Cc1noc(-c2ccccc2Cl)n1)Cc1ccco1	-0.55	-0.19
COc1ccc(-c2nc3ccc(Cl)cc3n2OCc2cccc(Cl)c2)cc1	x	0.105
CCn1c(SCC(=O)NN2CC(=O)N(c3ccc(F)cc3)CC2=O)nnc1-c1cccs1	-0.55	0.175
COC(=O)c1c(NC(=O)C(C)(C)C)csc1C	x	-0.515
CCCC1=C(c2ccccc2)C(=O)NC1	-0.35	-1.52
CN1C2CCC1CC(OC(=O)C1(c3ccccc3)CCCC1)C2 (stereo not given)	1.05	x
COC(CN(C)C(=O)c1cn(C)c2ccc(S(=O)(=O)N3CCC(C)CC3)cc2c1=O)OC	-0.8	-0.29
Cc1nn(Cc2ccccc2)c(C)c1C(=O)NS(=O)(=O)c1ccccc1Cl	1	-0.645
CC(C)CNS(=O)(=O)c1ccc(CCC(=O)N2CCN(c3ccccc3)CC2)cc1	0.2	-0.13
CCN(CC)C(=O)c1cccc(S(=O)(=O)N(C)C)c1	-0.65	-0.075
COc1ccc(S(=O)(=O)N2CCN(C(=O)/C=C/c3ccccc3)CC2)cc1	-0.2	0.53
FC(F)(F)c1cc(-c2nccs2)nc2cc(C3CC3)nn12	x	-0.125
COCCN=c1scc(-c2ccco2)n1/N=C/c1ccc(OC)cc1	-0.8	x
CCOC(=O)c1nn(-c2ccc(Cl)cc2)c(=N)c(C#N)c1C	x	0.3
O=C(c1ccco1)N1CCn2c1nc1ccccc12	-0.1	-0.155
Cc1ccc(S(=O)(=O)c2nc(S(=O)(=O)c3ccc(C)cc3)c(NCc3ccco3)s2)cc1	-0.95	0.33
CN1C/C(=C\c2cccc3ccccc23)C(=O)/C(=C/c2cccc3ccccc23)C1	-0.45	-0.88
Later entries
SMILES	AID504770	Ba CapD inh
CCC(C)NC(=O)CSc1cc(=O)n(C)c2ccccc12 (stereo not given)	-0.55	7.54
Cc1ccc(-c2csc3nc(CNCCN(C)C)[nH]c(=O)c23)cc1	-0.3	x
C=CCOc1c(Br)cc(CNCCCN2CCOCC2)cc1OC	-0.95	x
C=CCNC(=O)C1CC(=O)N(c2ccc(OCC(=O)Nc3cc(C)cc(C)c3)cc2)C1 (stereo not given)	-0.95	0
Cc1cc(SCC(=O)NN2CCOCC2)nc(C(C)C)n1	-0.5	x
NC(=O)C1CCN(CC(O)COc2ccc(Br)cc2)CC1 (stereo not given)	-1.15	0.115
COc1ccc(COC(=O)C2=C(C)NC3(O)c4ccccc4C(=O)C23O)cc1 (stereo not given)	-0.45	x
CC(C)C(=O)n1nc(-c2cccnc2)nc1NCc1cccs1	-0.2	0.695
Cc1ccc(C(=O)c2sc3nc4c(cc3c2N)C(=O)CC(C)(C)C4)cc1	x	2.04
O=C(/C=C/c1ccccc1)NCC1COc2ccccc2O1 (stereo not given)	1.05	-0.1
COc1ccccc1-c1coc2cc(OCC(=O)OCC(C)C)ccc2c1=O	-0.7	6.86
CC(C)(C)NC(=O)CSc1nc(C(F)(F)F)cc(=O)[nH]1	-0.35	x
CCOC(=O)N1CCN(C(=O)c2ccc3c(c2)sc2nc(-c4ccc(OC)cc4)cn23)CC1	-0.05	38.4
CC(=O)OCc1ccc(/C=C(\C#N)S(=O)(=O)c2ccc(Cl)cc2)o1	x	-0.955
CCOC(=O)C1=C(C)Nc2nnnn2C1c1ccc(OC)cc1 (stereo not given)	x	-0.04

Overlap with the part before: five compounds, followed by the next part.
SMILES	AID504770	Ba CapD inh
COc1ccccc1-c1coc2cc(OCC(=O)OCC(C)C)ccc2c1=O	-0.7	6.86
CC(C)(C)NC(=O)CSc1nc(C(F)(F)F)cc(=O)[nH]1	-0.35	x
CCOC(=O)N1CCN(C(=O)c2ccc3c(c2)sc2nc(-c4ccc(OC)cc4)cn23)CC1	-0.05	38.4
CC(=O)OCc1ccc(/C=C(\C#N)S(=O)(=O)c2ccc(Cl)cc2)o1	x	-0.955
CCOC(=O)C1=C(C)Nc2nnnn2C1c1ccc(OC)cc1 (stereo not given)	x	-0.04
Cc1ccc(-c2nnc(-c3cc4c(ccc5ccccc54)oc3=O)o2)cc1	2.7	2.48
CCN(CC)c1nc(N)c2c(N)nc3c(c2c1C#N)CC(c1ccccc1)O3 (stereo not given)	-1.05	x
CN(CCC#N)S(=O)(=O)c1ccc2[nH]cc(C(=O)O)c(=O)c2c1	-0.55	-0.585
Cc1cccc(N2CCN(C(=O)CN3C(=O)c4ccccc4C3=O)CC2)c1C	-0.45	0.07
CCCC(C)C(=O)Nc1nnc(Cc2ccc(OC)cc2)s1 (stereo not given)	-0.6	-0.16
CC(C)Nc1nc(NC(C)C)nc(Oc2ccc(=O)n(C)n2)n1	x	0.245
CN(Cc1cn(-c2ccccc2)nc1-c1ccc(Cl)cc1)C(=O)CCc1ccco1	1.05	x
Cc1cccc(N2CCN(CCNC(=S)Nc3c(C)cccc3C)CC2)c1C	-0.35	0.205
CCSC(SCC)[C@@H](O)[C@H](O)[C@H](O)[C@@H](O)CO	x	0.385
CC(C)C(=O)Nc1ccc(-c2nc3ccc(NC(=O)C(C)C)cc3[nH]2)cc1	-0.65	71.2
CCn1c(SCCC#N)nnc1-c1ccncc1	-0.1	x
Cc1ccccc1C(=O)NNC(=O)c1cc2c3ccccc3n(C)c2s1	x	34.5
Cc1ccc(CC(=O)NC(C)C(C)(C)C)cc1 (stereo not given)	-0.8	-0.295
CSc1nc(-c2ccccn2)nc(N)c1C#N	-0.6	0.465
Cc1ccc(CSc2nc3cnn(C)c3c(=O)n2Cc2ccccc2)cc1	0.3	0.615
O=C(Nc1cccc(Cl)c1)Nc1nc(-c2ccccc2)cs1	x	-0.805
Cc1ccc(C(=O)c2oc3ccccc3c2NC(=O)c2ccco2)cc1	0.65	-0.19
CCOC(=O)c1cnc(Nc2nc3ccccc3o2)nc1C	-1.05	0
CCc1ccc(NC(=O)c2ccnc(-n3cnnc3)c2)cc1	-0.85	x
COc1ccc(C2CC(=O)NC(SCC(=O)OC(C)C)=C2C#N)cc1OCc1ccccc1 (stereo not given)	x	0.57
O=C(CSc1ccccc1)NN1C(=O)c2ccccc2C1=O	0.7	x
COc1ccc(-c2nc(CS(=O)CC(=O)NCC3CCCO3)c(C)o2)cc1 (stereo not given)	1.5	0.145
CC(C)N1CC(O)=C(c2nc(-c3ccc(F)cc3)cs2)C1=N	0.4	x
COC(=O)/C(=C/c1ccco1)NC(=O)c1ccccc1	-0.7	-1.62
CCc1c(C)nc2ncnn2c1Nc1cc(Cl)c(OC)cc1OC	-0.9	-0.045
O=C(NCCCNC(=O)c1c(F)cccc1F)c1c(F)cccc1F	x	-0.485
CCOC(=O)c1c(NC(=O)COC(=O)C2CCC(=O)N2)sc2c1CCCC2 (stereo not given)	0.6	x
COc1ccc(Br)cc1CNC(=O)C1CCCN(c2nc3ccccc3o2)C1 (stereo not given)	1.15	0.465
COC(=O)c1ccc2c(c1)N(Cc1ccc(Cl)cc1)C(=O)c1ccccc1S2(=O)=O	-1.1	0.03
Cn1c(=O)c2sccc2n2c(CCCC(=O)NCc3ccc4c(c3)OCO4)nnc12	-0.65	-0.285
CCOC(=O)C1CC(CC2OCCO2)=NO1 (stereo not given)	-0.25	0.16
O=C(NCCCN1CCOCC1)/C(=C/c1cccs1)c1ccccc1	x	-1.47
O=C(O)COc1ccccc1O	0.25	0.895
CC(C)NC(=S)N(CCc1ccncc1)C(C)C	0.1	-1.82
N/C(=N\C(=S)Nc1ccccc1)N1CCOCC1	1.5	0.15
Cc1[nH]n(-c2ccccc2)c(=O)c1C=Nc1cc(C(C)(C)C)cc(C(C)(C)C)c1O	x	0.345
CCOC(=O)c1c(NC(=O)c2c(Br)cnn2C)c(C#N)nn1-c1ccccc1	1.4	4.47
CCOC(=O)N1CCN(C(=O)CN(c2ccc(Cl)c(C(F)(F)F)c2)S(=O)(=O)c2ccc(C)cc2)CC1	x	0.005
O=c1c2nnn(-c3ccc(Cl)cc3)c2ncn1CCN1CCCCC1	0.05	x
COc1ccc2cc3cc(C(=O)NCC4CCN(Cc5cccc(C)c5)CC4)oc3nc2c1	-0.3	75.2
CC(=O)NCCCc1nc2ccccc2n1Cc1ccccc1Cl	0.1	0.1
Cc1ccc(N=Cc2ccc3ncccc3c2)c(F)c1	-0.4	-1.23
COc1cccc(N2CCN(S(=O)(=O)c3ccc(Br)s3)CC2)c1	x	-0.715
CC1[N+](=O)C(c2ccccc2)=C(c2ccccc2)N([O-])C1(C)C (stereo not given)	-0.35	-0.775
N#CCCNc1ccccc1	0.7	x

Single records, from the list above. Screens in order: AID504770	Ba CapD inh
CCOC(=O)c1c(NC(=O)c2c(Br)cnn2C)c(C#N)nn1-c1ccccc1 is entered as 1.4	4.47
CC1[N+](=O)C(c2ccccc2)=C(c2ccccc2)N([O-])C1(C)C (stereo not given) is entered as -0.35	-0.775
O=c1c2nnn(-c3ccc(Cl)cc3)c2ncn1CCN1CCCCC1 is entered as 0.05	x
Cc1[nH]n(-c2ccccc2)c(=O)c1C=Nc1cc(C(C)(C)C)cc(C(C)(C)C)c1O is entered as x	0.345
N#CCCNc1ccccc1 is entered as 0.7	x

3 entries already listed, ordered by length of the SMILES, high to low:
SMILES	AID504770	Ba CapD inh
CCSC(SCC)[C@@H](O)[C@H](O)[C@H](O)[C@@H](O)CO	x	0.385
CC(=O)N1CCOc2cc(S(=O)(=O)N3CCCCC3)ccc21	-0.6	-0.445
COc1ccccc1OCC#CCN1CCCc2ccccc21	-1.05	-0.03

Compound activity from PubChem.
